Hsc70 = small molecules displacing fluorescent ligand from Hsc70 – biochemical, fluorescence polarization, primary screen (AID 568). Hsc70 fluorescence polarization, probe displacement; higher % means a stronger effect; strong numbers were not always called active. one-dose displacement, % at 20 µM; IC50 in µM for titrated hits. 83,000 tested, under 10 active;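 active = displacement above 50% without optical interference and an IC50 on retest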;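 note: ATPase domain with a fluorescein-tagged ATP probe; 0% = vehicle and 100% = excess ADP; read after one hour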
WNV NS2B-NS3 inh = blocks West Nile virus NS2B-NS3 protease activity; z-score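 (tested at a level between 10 and 100 µM)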; P06935; WNV NS2B-NS3 protease, fluorogenic substrate Ex360/Em465; stronger effect = lower value; actives 0.18% (n = 65,000);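 active = z-score at -3 or under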;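 note: score is relative to mean and spread of the compound wells of a plate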
Target sequence (P06935 1371-1501 limits assumed): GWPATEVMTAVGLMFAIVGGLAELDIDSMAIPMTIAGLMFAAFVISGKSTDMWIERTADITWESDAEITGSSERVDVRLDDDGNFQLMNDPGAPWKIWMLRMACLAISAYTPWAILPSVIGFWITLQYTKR
Target sequence (P06935 1502-1679 limits assumed): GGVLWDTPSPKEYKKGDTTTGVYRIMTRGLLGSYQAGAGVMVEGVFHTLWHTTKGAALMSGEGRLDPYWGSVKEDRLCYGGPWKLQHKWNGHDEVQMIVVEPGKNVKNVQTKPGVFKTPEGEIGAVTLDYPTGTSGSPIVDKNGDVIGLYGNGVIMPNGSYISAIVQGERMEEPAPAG
MT1-MMP reporter = MT1-MMP gene expression reporter suppression – cell-based, luciferase reporter, luminescence (AID 618); MT1-MMP promoter luciferase reporter cells, luminescence; calls from a first round at 10 µM; hits with a dose series show EC50 in µM; actives 0.62% (n = 87,000);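 active = over half of the reporter light lost at 10 µM or EC50 under 50 µM; inactive = the rest and hits that failed the dose series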;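 note: actives suppress MT1-MMP promoter-driven transcription so potencies describe inhibitors; HT1080 fibrosarcoma cells; overnight exposure; toxic or luciferase-blocking compounds were not removed from the actives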
* marks the source's active call; other numbers are inactive results; i = inactive; nt = not tested or not shown.

SMILES	Hsc70	WNV NS2B-NS3 inh	MT1-MMP reporter
O=C(O)CN1C(=O)SC(Nc2ccc(Cl)cc2)C1=O (stereo not given)	-3.1%	nt	i
C=CCNc1nc(C)c(C(C)=O)cc1C#N	6.3%	nt	i
COCCNC(=O)c1cc(-c2ccc(Cl)c(Cl)c2)on1	-2.9%	-0.52	i
CCN1CCc2c(C#N)c(N3CCOCC3)nc(N3CCOCC3)c2C1	3.7%	nt	i
CC(C)c1nccn1S(=O)(=O)c1cc(Cl)ccc1Cl	3.5%	-0.81	i
CCCOc1ccc(NC(N)=O)cc1OCCC	3.6%	-1	i
O=C(CN1CCN(c2ccc(F)cc2)CC1)Nc1ccc(-n2cnnn2)cc1	-0.9%	0.0041	i
COc1cccc(/C(O)=C2/C(=O)C(=O)N(CCCN3CCOCC3)C2c2ccncc2)c1 (stereo not given)	3.1%	nt	i
CCOc1ccc(N(CC(=O)N2CCCC2)S(=O)(=O)c2c(C)noc2C)cc1	-0.3%	-0.24	i
COc1ccc(C(C)=O)cc1CN1CCCCC1	-0.8%	nt	i
CN(C)CCCNc1cn[nH]c(=O)c1Cl	0.4%	nt	i
O=C(N/N=C/c1ccco1)c1cc(-c2ccccc2)n[nH]1	2.0%	nt	i
Oc1cccc2ccc(/C=C/c3cccs3)nc12	-3.5%	nt	i
Cc1cc(Cl)cc(Cl)c1OCC(=O)NCc1ccco1	-9.7%	0.09	i
COc1cccc(N2CCN(C(=O)C3C4C=CC5(CN(Cc6ccccc6Cl)C(=O)C35)O4)CC2)c1 (stereo not given)	-2.7%	-0.81	i
O=C(c1cccnc1NCc1ccccc1)N1CCOCC1	-1.1%	0.6	i
Cc1nc(N2CCCCC2)c2sc(=S)n(C)c2n1	0.1%	-1.7	i
O=C(C1CCCN(S(=O)(=O)c2cnc[nH]2)C1)N1CCN(c2ccc(Cl)cc2)CC1 (stereo not given)	3.5%	-0.38	i
CC(C)OC(=O)C1C(=O)CC(C)(O)C(C(=O)OC(C)C)C1c1cccnc1 (stereo not given)	9.5%	0.2	i
CCCN(Cc1cc2cc(OC)ccc2[nH]c1=O)C(=O)c1ccncc1	0.9%	-1.7	i

Just Hsc70 and MT1-MMP reporter, for some of the entries so far:
canonical_smiles	Hsc70	MT1-MMP reporter
Cc1nc(N2CCCCC2)c2sc(=S)n(C)c2n1	0.1%	i
O=C(C1CCCN(S(=O)(=O)c2cnc[nH]2)C1)N1CCN(c2ccc(Cl)cc2)CC1 (stereo not given)	3.5%	i

Remaining list, next part:
SMILES	Hsc70	WNV NS2B-NS3 inh	MT1-MMP reporter
Cc1nc2c(-c3ccc(F)cc3)c(C)nn2c(N2CCOCC2)c1C	3.8%	-1.1	i
Cc1cccnc1NC(=O)Nc1cccc(C(F)(F)F)c1	-5.2%	-0.63	i
O=C(COc1ccc(Cl)cc1)Nc1ccccc1N1CCOCC1	2.4%	0.27	i
CCS(=O)(=O)N1CCN(c2ccccn2)CC1	4.3%	nt	i
COc1ccc(N2C(=O)C3CCCN3C2c2ccccc2F)cc1 (stereo not given)	-2.4%	0.51	i
c1cc2c(cc1-c1cnc3n1CCC3)OCCO2	0.0%	-0.49	i
COc1ccc(C=Nc2cccc3c(=O)[nH][nH]c(=O)c23)c2ccccc12	0.7%	nt	i
Cc1nnc(SCC(=O)Nc2cccc(C(F)(F)F)c2)n1Cc1ccco1	1.2%	0.03	i
CCCC(=O)Nc1ccc(C(=O)N2CCCC2)cc1	3.1%	-0.52	i
CN(C)c1ccc(NC(=O)c2ccncc2)c2ccccc12	-7.0%	0.03	i
CCCCOC(=O)Nc1ccc(N2CCOCC2)cc1	2.7%	-0.39	i
COc1ccc(OCC(=O)N2CCN(C(=O)c3cccc(F)c3)CC2)cc1	-2.3%	nt	i
COC(=O)c1cc(C#N)c(SCc2ccccc2)nc1C	-1.2%	nt	i
CN(C)S(=O)(=O)c1cc(C(=O)NCCCn2ccc3ccccc32)ccc1Cl	1.0%	0.65	i
CCCCNC(=O)CC1SC(=NCC)N(CC)C1=O (stereo not given)	2.3%	nt	i
CCC(C)n1[nH]c(=O)cc1N (stereo not given)	0.0%	1.2	i
O=C(O)c1cccc(NC(=O)C2C3C=CC(C3)C2C(=O)OCC(F)(F)C(F)F)c1 (stereo not given)	0.8%	-0.8	i
Cc1nnc(N2CCc3ccccc3C2)[nH]c1=O	4.7%	0.37	i
O=C(c1ccco1)N1CCN(S(=O)(=O)c2cccc(C(F)(F)F)c2)CC1	-1.1%	-0.27	i
CCOC(=O)C(=O)Nc1ccccc1C(=O)Nc1ccc(OC)cc1	-1.5%	nt	i

A second format for part of the listing above:
Values run as follows: Hsc70, WNV NS2B-NS3 inh, MT1-MMP reporter
COc1ccc(OCC(=O)N2CCN(C(=O)c3cccc(F)c3)CC2)cc1
 : -2.3%, nt, i
COC(=O)c1cc(C#N)c(SCc2ccccc2)nc1C
 : -1.2%, nt, i
CN(C)S(=O)(=O)c1cc(C(=O)NCCCn2ccc3ccccc32)ccc1Cl
 : 1.0%, 0.65, i

Carrying on.
SMILES	Hsc70	WNV NS2B-NS3 inh	MT1-MMP reporter
N#CCSc1nc2sc3c(c2c(=O)n1C1CCCCC1)CCCC3	-2.0%	0.12	i
Cn1nnc(NC(=O)CSc2ncn[nH]2)n1	-5.1%	-0.67	i
Cc1ccc2nc(SCC(=O)NCC3CCCO3)c(C#N)cc2c1 (stereo not given)	-14%	0.08	i
COC(=O)c1cc(OC)c(OC)cc1NC(=O)CN1CCCCC1	-2.4%	-1.1	i
COc1ccc(Cl)cc1NC(=O)CSc1nncn1-c1cccnc1	-2.0%	-1.2	i
Cc1ccc2oc3c(c(=O)c2c1)C(c1ccc(F)cc1)N(CCCN1CCOCC1)C3=O (stereo not given)	-2.2%	0.44	i
Cc1nc2ccccc2n2c(-c3ccccc3)c3c(=O)n(C)c(=O)n(C)c3c12	-4.3%	nt	i
Cc1ccc(C)c(C(=O)c2c(C)nc3sccn23)c1	-2.6%	0.93	i
O=C(Cc1ccc(F)cc1)N(c1ccc(F)cc1)C1C=CS(=O)(=O)C1 (stereo not given)	-4.0%	-0.8	i
N#Cc1c(N)nc2c(c1-c1cccc(O)c1)CCCCCC2	-1.1%	0.71	i
Cc1ccc2nsnc2c1S(=O)(=O)N(Cc1cc2cccc(C)c2[nH]c1=O)CC1CCCO1 (stereo not given)	3.6%	-1.3	i
CCN(C(=O)CSc1ncn[nH]1)c1cccc2ccccc12	0.0%	-0.56	i
N#CC1=C(SCc2ccccc2)NC(=O)C(C#N)C12CCCC2 (stereo not given)	0.7%	-0.32	i
CN1CCN(C2CC(=O)N(Cc3ccc(N4CCCC4=O)cc3)C2=O)CC1 (stereo not given)	-5.1%	nt	i
Cc1ccc(O)c(C2=Nc3ccccc3N=C(c3ccco3)C2)c1	-5.1%	nt	i
Cc1c(N=C/C=C2\N(C)c3ccccc3C2(C)C)c(=O)n(-c2ccccc2)n1C	-12%	-0.98	i
O=C(C1CSC2(c3ccc(F)cc3)CCC(=O)N12)N1CCCCCC1 (stereo not given)	2.2%	-0.66	i
COCCNC(=O)C1CCN(S(=O)(=O)c2ccccc2)CC1	1.5%	-0.97	i
O=C(CN1C2CCCC1CC(NC(=O)c1ccco1)C2)Nc1ccccc1 (stereo not given)	-2.2%	nt	i
CCOC(=O)c1cc(-c2ccccc2)sc1NC(=O)C(C)Sc1nnnn1C (stereo not given)	-3.5%	1.3	i
CCOC(=O)N1CCN(C(=O)c2ccc(CS(=O)(=O)c3ccc(OC)cc3)o2)CC1	-1.8%	0.47	i
Cc1cc(C)nc(Sc2ncnc3c2oc2ccccc23)n1	-0.5%	nt	i
S=C1NCCc2ccccc2C1c1ccccc1 (stereo not given)	-3.2%	nt	i
Cc1cc(OCC(=O)N2CCOCC2)cc2oc(=O)c3ccccc3c12	-5.5%	1.1	i
O=C(O)CCS(=O)(=O)Cc1ccccc1Cl	-6.9%	nt	i
Cc1c(NS(=O)(=O)N2CCCC2)c(=O)n(-c2ccccc2)n1C	1.8%	0.67	i
Cc1ccc(Cn2ccc(NC(=O)c3cc(-c4ccc5c(c4)OCO5)on3)n2)cc1	1.6%	0.61	i
N#C/C(=C/c1ccc(Sc2nc3ccccc3[nH]2)o1)c1cccc(Br)c1	-4.3%	nt	i
COC(=O)c1cccc(S(=O)(=O)N2CCC(c3nc4ccccc4o3)CC2)c1	2.2%	nt	i
CC1=C(C(=O)OCC(C)C)C(c2ccc(F)cc2)NC(=O)N1 (stereo not given)	-3.5%	-1.6	i

Single records, as listed above. Screens in order: Hsc70 | WNV NS2B-NS3 inh | MT1-MMP reporter
Shown for Cc1cc(OCC(=O)N2CCOCC2)cc2oc(=O)c3ccccc3c12 : -5.5% | 1.1 | i
Shown for N#C/C(=C/c1ccc(Sc2nc3ccccc3[nH]2)o1)c1cccc(Br)c1 : -4.3% | nt | i
Shown for S=C1NCCc2ccccc2C1c1ccccc1 (stereo not given) : -3.2% | nt | i
Shown for COC(=O)c1cccc(S(=O)(=O)N2CCC(c3nc4ccccc4o3)CC2)c1 : 2.2% | nt | i
Shown for Cc1c(NS(=O)(=O)N2CCCC2)c(=O)n(-c2ccccc2)n1C : 1.8% | 0.67 | i

Other compounds follow:
SMILES	Hsc70	WNV NS2B-NS3 inh	MT1-MMP reporter
COc1ccc(/C=N/n2cnnc2SCc2ccccc2)cc1	6.1%	1.3	i
CC1=CCC(C(C)(C)NC(=O)c2ccccc2)C/C1=N\O (stereo not given)	-0.6%	0.26	i
CCN(CC)c1ccc(NC(=O)c2cnn(CC)c2)cc1	-0.2%	nt	i
CCOC(=O)c1c(C)c(C(=O)NCCc2ccc(S(N)(=O)=O)cc2)c(C)n1CC	-2.2%	0.57	i
Cc1ccc(NC(=O)N2CCC(C(=O)NCC(C)C)CC2)cc1	0.5%	0.04	i
CCN(CC)CCNC(=O)CCCCn1c(=S)[nH]c2c([nH]c3ccc(OC)cc32)c1=O	8.5%	0.23	i
CCS(=O)(=O)N1CCC(C(=O)NCc2cccs2)CC1	0.8%	-0.59	i
CCCn1c(C)cc(C(=O)CN2C(=O)c3ccccc3C2=O)c1C	-1.7%	-0.55	i
CCC(CC)=N/N=C/c1c(O)n(CC)c2cc(C3=NNC(=O)CC3)ccc12	-18%	nt	i
Cc1nc(NC(=O)c2ccco2)sc1C(=O)Nc1ccc(Br)cc1	-2.1%	-0.82	i
Cc1ccc(C)c(NC(=O)CSc2nc(C)cc(C)c2C#N)c1	4.4%	nt	i
CCOC(=O)C1=C(C)NC2=C(C(=O)CCC2)C1c1cc(OC)ccc1OC (stereo not given)	-2.6%	-0.26	i
C#CCn1c(=NC(=O)CSCC(=O)N2CCOCC2)sc2ccccc21	3.9%	1.5	i
CCNC(=O)COC(=O)c1cc(-c2ccc(OC)cc2)nc2ccccc12	-0.3%	nt	i
Cc1ccc(S(=O)(=O)NCC(=O)OCC(=O)NC(=O)c2cccn2C)cc1	-0.5%	nt	i
Cc1ccc(CNC(=O)C2CC(=O)N(c3ccc(OCC(=O)N4CCCC4)cc3)C2)cc1 (stereo not given)	-0.4%	nt	i
CCOC(=O)/C(C#N)=C\c1c(C)cc(C)c(COC(C)=O)c1C	-5.9%	nt	i
Cc1ccc(OCC(=O)Nc2cccc(-c3nnc(-c4ccccc4)o3)c2)cc1	-2.3%	-1.2	i
Cc1noc(C)c1COC(=O)C1COc2ccccc2O1 (stereo not given)	1.6%	1	i
CC(C)c1nnc(NC(=O)c2cccs2)s1	-2.0%	-1.2	i
CC1CCCCC1NC(=O)CSc1nnc(-c2ccccc2)n1N (stereo not given)	-8.2%	1.4	i
CCOC(=O)N1CCN(c2ncnc3c2[nH]c2ccc(OC)cc23)CC1	-1.5%	0.001	i
CCOC(=O)c1ccc(NC(=O)c2ccc(NS(C)(=O)=O)cc2)cc1	9.0%	0.67	i
O=C1c2ccccc2NC2(CCCC2)N1O	-3.2%	nt	i
O=C(Nc1ccc(N2CCOCC2)cc1)c1ccc(S(=O)(=O)N2CCCCC2)cc1	2.2%	-0.08	i
CCc1noc(C)c1C(=O)NCCc1ccc(OC)c(OC)c1	0.8%	-0.75	i
C=CCOC(=O)C1=C(C)NC(SCC(=O)Nc2nccs2)=C(C#N)C1c1cccs1 (stereo not given)	-0.4%	nt	i
COC(=O)c1cc(-c2ccc3c(c2)OCO3)nc2ccccc12	3.5%	0.37	i
O=C(Oc1ccc(N(Cc2cccs2)C2=NS(=O)(=O)c3ccccc32)cc1)c1ccc(Cl)cc1	-0.7%	nt	i
CC(=O)c1c(C(C)=O)c(C)n(-c2nc(-c3ccc(Br)cc3)c(C)s2)c1C	-0.4%	nt	i
CCCCNC(=O)Cn1cnc2sc(C(=O)OCC)c(C)c2c1=O	-8.1%	2.3	i
Cc1ccc(CCNC(=O)CN2C(=O)COc3ccccc32)cc1	4.9%	0.91	i
Cc1cc(C(=O)CSc2nc3ccccc3c(=O)n2C)c(C)n1Cc1ccc2c(c1)OCO2	-3.9%	1.4	i
O=C1C2C3C=CC(C3)C2C(=O)N1c1ncn[nH]1 (stereo not given)	-3.3%	2.1	i
OC(c1ccccc1)C1CN(Cc2ccccc2)CCC1(O)c1ccccc1 (stereo not given)	4.9%	-1	i
O=C(COc1ccc(Cl)cc1Cl)N1CCCCCC1	6.8%	-0.55	i
O=C1C2C3c4ccccc4C(c4ccccc43)C2C(=O)N1CN1CCOCC1 (stereo not given)	-3.7%	-0.25	i
N#Cc1cc2c(nc1SCc1cccnc1)CCCCC2	1.9%	0.35	i
CCCNC(=O)CN(C)S(=O)(=O)c1c(C)cc(C)cc1C	-3.7%	nt	i
CC12CN3CC(C)(CN(C1)C3c1cc3ccccc3[nH]1)C2=O (stereo not given)	5.0%	0.33	i

High-throughput results as filed in PubChem BioAssay.
